Source: PubChem BioAssay
Anaer choline gr = growth inhibitors of anaerobic choline-fed gram-negatives, minimal medium, absorbance; Gram-negative bacterium anaerobic choline minimal medium; stronger effect = lower value; many inactives read as strong as hits in the columns shown; calls only; hit rate 0.2% among 55,000;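 active means growth z-score on choline under -2 at 7 or 20 h with little or no fall on glycerol, limits in tiers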;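 further: stock transfer was 300 nL into about 50 µL; the organism is E. coli; final concentration not given here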
Anaer choline gr early = second read-out of Anaer choline gr, no call of its own (marks repeat the call); z-score; measured here: choline growth z-score, timepoint 1;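 score of optical density at 7 h as mean of two plates; lower means less growth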
* hit, by the source's call; i = inactive. Only part of the results is shown; count on the stated rates, not on these rows.

The line under a structure holds: Anaer choline gr, Anaer choline gr early
CCCNC(=O)Nc1ccc(-c2noc(-c3cc(C)cc(C)c3)n2)cc1
→ i, 0.38
Cc1csc(NC(=O)C2CCN(S(=O)(=O)c3cc(-c4noc(C)n4)ccc3Cl)CC2)n1
→ i, 0.19
O=C(Nc1ccc(F)cc1Cl)C1CCCN(c2nc3cccnc3s2)C1 (configuration not stated)
→ i, -0.36
Cc1ccc(Cl)cc1NC(=O)N1CCc2nc(N3CCCCC3)ncc2C1
→ i, -0.51
CCOC(=O)c1c(C)[nH]c(C)c1S(=O)(=O)N(C)CC(=O)N1CCc2ccccc2C1
→ i, -1.2
O=C(NCCc1cscn1)[C@H]1CSCN1C(=O)CSc1ccccc1
→ i, 0.17
CCOC(=O)c1c(C)n(C)c2ccc(OCC(O)CNc3ccccc3)cc12 (configuration not stated)
→ i, 0.88
CCCNC(=O)c1cccc(Nc2ccnc(-c3cccc(C)c3)n2)c1
→ i, 0.49
Cc1ccc(NC(=O)c2ccc3c(c2)OCCCO3)cc1
→ i, -1.1
CCOC(=O)c1c(N)sc2c1CCN(C(C)=O)C2
→ i, -0.78
COCCN(CCC(=O)N1CCNCC1)C(=O)c1ccccc1
→ i, -0.63
Cc1cc(-c2ccc(C)c(S(=O)(=O)N3CCc4ccccc4C3)c2)on1
→ i, 1.3
CCCCNC(=O)c1nc(-c2nn(-c3ccccc3)c(=O)n(CC)c2=O)no1
→ i, -0.84
O=S(=O)(c1cccc(-c2nnc(-c3ccc(F)cc3)o2)c1)N1CCCC1
→ i, 0.72
Cc1ccc(-c2n[nH]c3c2C(c2cccc(O)c2)N(c2ccc(Cl)cc2)C3=O)cc1 (configuration not stated)
→ i, -1.8

The line under a structure holds: Anaer choline gr, Anaer choline gr early
CCOC(=O)c1c(C)[nH]c(C)c1S(=O)(=O)N1CCC(C(=O)N2c3ccccc3CC2C)CC1 (configuration not stated)
→ i, -1.5
COc1ccc(-c2cncc(C(=O)NCCC3=CCCCC3)c2)cc1
→ i, -0.63
Cc1cc(C)cc(Nc2nccc(=O)[nH]2)c1
→ i, -1.1
CCOc1ccc(S(=O)(=O)N2CCCC2c2nc(-c3ccc(Cl)cc3)no2)cc1 (configuration not stated)
→ i, -1.1
COC(=O)c1cccc(NC(=O)C2=Cc3ccc(C)cc3OC=C2)c1
→ i, 2.9
O=C(CSc1ccccc1)N1CCN(Cc2cc(=O)n3nc(-c4cccc(F)c4)sc3n2)CC1
→ i, 0.94
C[N+](C)(C)[C@@H](Cc1c[nH]c(=S)[nH]1)C(=O)[O-]
→ i, -0.08
CCc1ccc(CNc2nc3ccccc3n2CCN(CC)CC)cc1
→ i, -0.3
CCN1CCN(C(=O)c2cc(N(C)S(=O)(=O)c3ccccc3)ccn2)CC1
→ i, 0.89
O=C(NCc1ccc(Cl)cc1)c1ccc(Cl)c(-n2cnc3cccnc32)c1
→ i, -0.81
O=C(NCCCN1CCCC1)C1CCN(c2cncnc2N2CCOCC2)CC1
→ i, -0.09
O=C(Nc1cccc(F)c1)C1CCC(=O)N1S(=O)(=O)c1ccc(F)cc1 (configuration not stated)
→ i, -0.63
Cn1cnc2ccc(-c3noc(-c4ccc5cc[nH]c5c4)n3)cc21
→ i, 0.7
CN(C)S(=O)(=O)c1ccc2c(c1)cc(C(=O)NCc1ccc3c(c1)OCO3)n2Cc1ccncc1
→ i, 0.12
CCOC(=O)c1cc(C(=O)Nc2cc(Cl)ccc2OC)c(=O)[nH]c1C
→ i, -0.31

The line under a structure holds: Anaer choline gr, Anaer choline gr early
O=C(CCC(=O)N1CCSc2ccccc21)N1CCN(c2ccccc2)CC1
→ i, 1
Cc1nc2ccccc2c(=O)n1-c1ccc(NC(=O)c2cc(Cl)ccc2F)cc1
→ i, 0.98
O=C(Cc1ccc(F)cc1)Nc1cccc(-c2ccc3ccccc3n2)c1
→ i, 0.8
C=CCn1c(N2CCC(C(=O)O)CC2)nc2ccccc21
→ i, 0.03
Cc1ccc(CNC(=O)CC2=NS(=O)(=O)c3ccccc3N2)cc1
→ i, -1.4
Cc1cccc(C(=O)Nc2nn3c(C)nnc3s2)c1
→ i, -0.07
COc1ccc(OC)c(C(=O)c2c(N)c(-c3nc(-c4ccc(Cl)cc4)cs3)c3ccccn23)c1
→ i, -0.82
Cc1ccc(N(C)C(=O)c2cc(-c3cccnc3)on2)cc1
→ i, -0.82
Cc1nn2c(c1-c1ccc(Cl)c(S(=O)(=O)N3CCCC3)c1)NC(=O)CCC2=O
→ i, -0.12
COc1cccc(CNC(=O)c2ccc3cnn(Cc4ccc(Cl)cc4)c3c2)c1
→ i, 0.59
Cc1ccc2nc(-c3ccccc3NS(=O)(=O)c3ccccc3)ccc2c1
→ i, 1.6
Cc1cc(C)cc(C(=O)N2CCN(c3nc(C)cc(N4CCCC4)n3)CC2)c1
→ i, 0.55
Cc1[nH]nc2c1C(c1cccnc1)N(C)C2=O (configuration not stated)
→ i, 0.55
Fc1ccc(Cl)c(-c2nc(-c3ccn4cnnc4c3)no2)c1
→ i, 0.38
COc1ccc(NC(=O)c2cc3nccc(-c4ccc(C)cc4)n3n2)c(C)c1
→ i, 0.28

Quoted at random: five compounds from above.
The line under a structure holds: Anaer choline gr, Anaer choline gr early
COc1ccc(OC)c(C(=O)c2c(N)c(-c3nc(-c4ccc(Cl)cc4)cs3)c3ccccn23)c1
→ i, -0.82
COc1ccc(NC(=O)c2cc3nccc(-c4ccc(C)cc4)n3n2)c(C)c1
→ i, 0.28
Cc1nc2ccccc2c(=O)n1-c1ccc(NC(=O)c2cc(Cl)ccc2F)cc1
→ i, 0.98
Cc1cc(C)cc(C(=O)N2CCN(c3nc(C)cc(N4CCCC4)n3)CC2)c1
→ i, 0.55
Cc1ccc2nc(-c3ccccc3NS(=O)(=O)c3ccccc3)ccc2c1
→ i, 1.6

Other records follow:
The line under a structure holds: Anaer choline gr, Anaer choline gr early
Cc1ccc2c(=O)c(-c3nc(-c4ccc(Cl)cc4)no3)cn(Cc3cccc(Br)c3)c2n1
→ i, 0.18
CC(C)Cn1cc(S(=O)(=O)N2CCSCC2)c2cccnc21
→ i, 1.1
COc1ccc2[nH]cc(/C=C/c3nc4ccccc4c(=O)n3-c3ccccc3OC)c2c1
→ i, -0.93
O=C(Nc1ccccc1)Nc1nc(CC(=O)N2CCN(c3cccc(Cl)c3)CC2)cs1
→ i, 0.12
CC(C)Cc1csc(-c2csc(S(=O)(=O)NC3CCCCC3)c2)n1
→ i, 2.4
COc1cccc(-n2ccnc(SCC(=O)Nc3ccc(C)c(C)c3)c2=O)c1
→ i, 0.2
O=c1[nH]c2cc(-c3nc(-c4ccc5c(c4)OCO5)no3)ccc2c(=O)n1Cc1ccc2c(c1)OCO2
→ i, -0.62
CNC(=O)c1cc2cc(N(C)S(C)(=O)=O)ccc2s1
→ i, -0.44
Cc1ccc(C)c(Cn2nc3c(S(=O)(=O)N4CCCC4)cccn3c2=O)c1
→ i, -0.59
CCOc1ccc(S(=O)(=O)N2CCCC(C)(C(=O)NCc3ccccc3C)C2)cc1 (configuration not stated)
→ i, 0.31
COC(=O)c1cc(S(=O)(=O)N2CCCC2C(=O)Nc2cc(F)ccc2F)cn1C (configuration not stated)
→ i, -0.99
Cc1ccc(S(=O)(=O)N2CCC3(CC2)NCCN=C3NCc2ccccc2)cc1C
→ i, 0.14
Cc1c(Cl)cccc1-c1ccc(CNCC2CCCO2)o1 (configuration not stated)
→ i, -0.67
COc1ccc(CC(=O)NCCc2nc(-c3ccccc3)n[nH]2)cc1OC
→ i, 0.22
COc1cc(C)c(Cl)cc1S(=O)(=O)n1ccnc1
→ i, 0.74

Whole records as entered above.
CC(C)Cn1cc(S(=O)(=O)N2CCSCC2)c2cccnc21 reads Anaer choline gr = i; Anaer choline gr early = 1.1
CCOc1ccc(S(=O)(=O)N2CCCC(C)(C(=O)NCc3ccccc3C)C2)cc1 (configuration not stated) reads Anaer choline gr = i; Anaer choline gr early = 0.31

(cont.)
The line under a structure holds: Anaer choline gr, Anaer choline gr early
Cc1ccc(-n2ccnc2SCc2nc(-c3cccc(F)c3)no2)cc1
→ i, -0.45
O=C(NCCc1c[nH]c2ccccc12)c1nc[nH]c1C(=O)NCc1ccccn1
→ i, 0.41
COc1ccc2cc(C(=O)N3CCC(C(C)C(=O)NCCc4c[nH]c5ccccc45)CC3)[nH]c2c1 (configuration not stated)
→ i, -0.59
CCOc1ccccc1NC(=O)N(C)Cc1nc2cc(C(=O)N(C)C)ccc2n1CC
→ i, -0.92
O=S(=O)(Cc1ccccc1)N1CCCC1c1ccc(F)cc1 (configuration not stated)
→ i, 0.11
C=CCNC(=O)C1CCCN(Cc2noc(-c3ccc(C)cc3)n2)C1 (configuration not stated)
→ i, -1.9
CCS(=O)(=O)c1nc2ccc(NS(=O)(=O)c3ccc(C4CCCCC4)cc3)cc2s1
→ i, 0.74
COc1ccc(NC(=O)C2CCN(S(=O)(=O)c3ccc4c(c3)CCCC(=O)N4)CC2)c(OC)c1
→ i, -0.55
CCC(C)c1ccc(O)c(NC(=O)COc2ccc(Cl)cc2-n2cnnc2)c1 (configuration not stated)
→ i, 0.67
CCCC(=O)n1nc(C)c(S(=O)(=O)N2CCc3ccccc3C2)c1C
→ i, -0.72
CN(C)S(=O)(=O)N(CC(=O)NCC1CCCO1)c1ccccc1 (configuration not stated)
→ i, 1.2
CC(C)NC(=O)c1ccc2c(=O)n(C(C)C)c3nn(CC(=O)NC4CCCC4)c(=O)n3c2c1
→ i, -0.76
O=C(NCCc1csc2nc(-c3cccc(F)c3)nn12)c1ccc(F)cc1
→ i, 3.8
CC1CCN(C(=O)c2cc3c(s2)-c2ccc(Cl)cc2SC3)CC1
→ i, 0.66
O=C(NC1CC1)c1ccc2c(c1)CCN2C(=O)C1CC1
→ i, -0.31

The line under a structure holds: Anaer choline gr, Anaer choline gr early
COc1ccc(NC(=O)N2CCOc3ccc(COCc4ccc(C)cc4)cc3C2)c(OC)c1
→ i, 0.97
COc1ccc(NC(=O)N2CCN(c3nc4cc(Br)ccc4n4cccc34)CC2)cc1OC
→ i, 1.2
CCN(CC)C(=O)CN(C)S(=O)(=O)c1cc2c(cc1Cl)NC(=O)CO2
→ i, -0.97
CC1(C)C(=O)N(CC(=O)NCc2ccc(Cl)cc2)c2ccc(S(=O)(=O)N3CCCC3)cc21
→ i, -0.64
CCCCSc1nc2c(sc3ncccc32)c(=O)n1CC1CCCO1 (configuration not stated)
→ i, 1.1
CCc1nc(-c2ccc(C)c(S(=O)(=O)N3CCc4ccccc4C3)c2)no1
→ i, 1.7
COc1c(C)cc(S(=O)(=O)Nc2cccc(-c3ccc(N4CCC(C)CC4)nn3)c2)c(C)c1C
→ i, 0.55
O=C(CCc1nc(CS(=O)(=O)c2ccc(Cl)cc2)no1)N1CCOCC1
→ i, 0.46
O=C(COc1ccccc1F)Nc1ccc2nc(SCCOc3ccccc3)sc2c1
→ i, 0
COc1ccc(-c2cnc3c(-c4ccc(OC)c(OC)c4)cnn3c2N)cc1OC
→ i, 1.2
COc1ccc(OC)c(CNC(=O)c2nc(N3CCOCC3)c3ccccc3n2)c1
→ i, -0.19
Cc1ccc(-c2nc3sc(CCNC(=O)c4ccc(Br)cc4)c(C)n3n2)cc1
→ i, 1
CCOC(=O)Cn1c(=O)n(CC2CCCO2)c2nc(-c3ccccc3)nc(C(N)=O)c21 (configuration not stated)
→ i, -0.81
CCC(=O)n1nc(C)c(S(=O)(=O)N2CCCCC2)c1C
→ i, 0.36
O=C(Nc1ccc(N2CCCC2)cc1C(=O)O)c1ccc(Br)cc1
→ i, -0.64

The line under a structure holds: Anaer choline gr, Anaer choline gr early
CNC(=O)C1CCN(S(=O)(=O)Cc2ccccc2)CC1
→ i, -0.79
COc1ccc(Nc2nc(C)c(NC(=O)C(C)C)c(Nc3ccc(OC)cc3)n2)cc1
→ i, -1.4
Cc1sc(-c2ccno2)cc1S(=O)(=O)N(C)C1CCCCC1
→ i, 0.27
CC(=O)[C@@]12OC(C)(c3ccccc3)O[C@@H]1C[C@H]1[C@@H]3CCC4=CC(=O)CC[C@]4(C)[C@H]3CC[C@@]12C (some centres not stated)
→ i, 1
O=c1[nH]c(SCc2nc(-c3cccc(Br)c3)no2)nc2c(-c3ccccc3)c[nH]c12
→ i, 1.2
CC(=O)N1CCC2(CC1)OC(=O)C(C)=C2C(=O)NC1CCCC1
→ i, -0.68
COc1cccc(C(Nc2cccc(C)n2)c2cc(C)sc2NC(=O)c2ccccc2)c1 (configuration not stated)
→ i, 1.6
CN(C)C1(CNC(=O)COc2ccc(Br)cc2)CCCCC1
→ i, -2.1
CC(C)CCNC(=O)N1CCCN(c2nc3cc(Br)ccc3n3cccc23)CC1
→ i, -0.15
O=C1Nc2ccccc2C1c1c(-c2ccc(Br)cc2)[nH]c2[nH]c(=O)[nH]c(=O)c12 (configuration not stated)
→ i, -0.68
CCCCC/C=C\C/C=C\C/C=C\CCCCCCC(=O)O
→ i, -0.39
COc1ccc(C(=O)Nc2cnc3oc(-c4ccccc4OC(C)C)nn3c2=O)cc1OC
→ i, -0.74
O=C(Nc1ccc(F)c(Cl)c1)c1ccc(Oc2ccnc(-c3ccc(F)cc3)n2)cc1
→ i, -0.61
CCNC(=O)N1CCCC(c2cccc(C(=O)NCCCN3CCCCC3)c2)C1 (configuration not stated)
→ i, -0.76
Cc1ccc(F)cc1NS(=O)(=O)c1cc(-c2nc(C(C)(C)C)cs2)cs1
→ i, 0.82

The line under a structure holds: Anaer choline gr, Anaer choline gr early
COc1cc2c(=O)n(Cc3ccc(C(=O)NC4CCCC4)cc3)c(=O)n(CC(N)=O)c2cc1OC
→ i, 2
O=C(NC1CCCCC1)N1CCC(n2c(C(F)(F)F)nc3cccnc32)CC1
→ i, 0.09
COCCN1C(=O)c2oc3ccccc3c2OCC1(C)C(=O)NCc1ccccc1OC (configuration not stated)
→ i, -0.13
Cc1sc2ncnc(Nc3ccc(F)c(Cl)c3)c2c1S(=O)(=O)N1CCCCC1
→ i, 1.2
COc1ccccc1N1CCN(CCN(C(=O)C2CCCCC2)c2ccccn2)CC1
→ i, 0.65
COc1ccc(CCNC(=O)c2cnc3sc4c(n3c2=O)CCCC4)cc1
→ i, 0.53
Cc1nc2nc(C)c(Cc3ccccc3C)c(=O)n2[nH]1
→ i, -0.97
